Ecoli rRNA inh: inhibits bacterial ribosomal RNA function over humanized ribosomes | E. coli WT GFP vs humanized-ribosome RFP mutants, fluorescence, 24 h; hits give low values; DMSO median 0, no signal -100 | hit rate 1.6% among 350,000 | GFP signal change (wild-type ribosome), % (concentration not given with the values);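 active means significant combined selectivity score with lowered wild-type GFP, culture density cut under 30%, mutant RFP and density less affected; inactive means any of these conditions unmet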; further: one replicate is shown; some compounds called inactive have numbers as strong as hits
FGF22 binding: binders of recombinant human FGF22 by thermal shift; calls only at 9.99 µM; hit rate 1.5% among 340,000; SYPRO orange fluorescence; percent of sucrose octasulfate shift, DMSO zero; Q9HCT0;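 active means melting point raised past a set limit in the mean and every replicate; three in four hits are not shown here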
Target sequence (Q9HCT0 whole entry, looked up): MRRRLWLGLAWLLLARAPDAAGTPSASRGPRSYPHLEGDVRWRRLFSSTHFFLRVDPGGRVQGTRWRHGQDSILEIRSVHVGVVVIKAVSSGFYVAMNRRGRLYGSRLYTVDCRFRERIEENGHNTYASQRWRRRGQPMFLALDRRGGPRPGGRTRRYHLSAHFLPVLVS
AF4-AF9 inh: blocks AF4 peptide binding to human AF9. P42568. AlphaScreen, biotin-AF4 peptide binding to FLAG-AF9. inhibition, % at 10 µM. hit rate 0.47% among 350,000. AID 651704;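 active means every replicate reaching a set inhibition limit, whatever the replicate mean, cut at about 25% in these data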;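 further: 0% = plate neutral control median and 100% = total signal loss; the record names both 10 and 1 µM as test concentration; the first replicate is given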
Target sequence (P42568 whole entry, looked up): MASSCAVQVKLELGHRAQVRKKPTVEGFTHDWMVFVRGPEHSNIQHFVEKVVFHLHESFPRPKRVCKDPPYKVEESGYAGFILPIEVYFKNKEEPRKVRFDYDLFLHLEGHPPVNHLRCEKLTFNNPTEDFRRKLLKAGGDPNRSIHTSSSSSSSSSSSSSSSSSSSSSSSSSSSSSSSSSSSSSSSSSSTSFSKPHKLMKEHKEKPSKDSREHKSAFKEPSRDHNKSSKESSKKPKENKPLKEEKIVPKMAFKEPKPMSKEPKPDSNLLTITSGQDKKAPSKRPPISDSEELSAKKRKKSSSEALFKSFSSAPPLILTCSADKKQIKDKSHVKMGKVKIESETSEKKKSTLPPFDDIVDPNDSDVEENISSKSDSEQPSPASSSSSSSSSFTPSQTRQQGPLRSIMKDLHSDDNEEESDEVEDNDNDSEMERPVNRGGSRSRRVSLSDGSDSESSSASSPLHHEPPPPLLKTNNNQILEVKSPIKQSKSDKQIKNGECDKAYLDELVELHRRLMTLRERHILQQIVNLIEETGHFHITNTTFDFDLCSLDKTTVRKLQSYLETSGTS
Ecoli rRNA inh OD600: also measured in Ecoli rRNA inh; calls as there; OD600 change, %; measured here: OD600 growth;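 optical density of the mix in the first replicate; 0 = DMSO median and -100 = no signal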
Ecoli rRNA inh RFP: further read-out of Ecoli rRNA inh, marked with its call; RFP signal change, %; measured here: RFP humanized mutant strains;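 first replicate; 0 = DMSO median and -100 = no signal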
An asterisk follows results filed as active; i = inactive; + = active, no number; & = joins results of further samples. These rows are one share of the data, so the mix of outcomes need not match the whole.

Ecoli rRNA inh RFP,Ecoli rRNA inh OD600,AF4-AF9 inh,Ecoli rRNA inh,FGF22 binding,compound
-3.7,8,-0.8,0,i,C[C@@H](NC(=O)[C@@H]1[C@@H](CO)[C@@H]2Cn3c(ccc(-c4cccnc4)c3=O)[C@H]1N2C)c1ccccc1
2.6,-2,1.2,4,i,C[C@H]1CN([C@@H](C)CO)C(=O)c2cccc(NC(=O)CCCCCC(=O)Nc3ccccc3N)c2O[C@H]1CN(C)C(=O)Nc1ccc(F)cc1
-4.3,-10,-4.4,6,i,CC(C)C1Cc2[nH][nH]c(=O)c2C(c2ccc(Cl)cc2)O1 (stereo not given)
3.5,-17,-0.1,-3,i,O=C(C[C@H]1CC[C@H]2[C@@H](COC[C@H](O)CN2CCC(F)(F)F)O1)N1CCC(Cc2ccccc2)CC1
0.0,3,-1.5,2,i,CC(C)NC(=O)Nc1ccc2c(c1)C(=O)N(C)[C@H]1CC[C@H](CC(=O)Nc3ccc(F)cc3)O[C@@H]1CO2
-2.2,12,1.7,3,i,CC(C)CC1C(=O)N(Cc2cn(CC3CCCCC3)nn2)CCS(=O)(=O)N1Cc1ccc(-c2cccc(C#N)c2)cc1 (stereo not given)
-2.0,2,-3.1,-5,i,CCCC#Cc1cnc2c(c1)C(=O)N([C@H](C)CO)C[C@@H](C)[C@H](CN(C)C(=O)Cc1cccnc1)O2
-5.0,-5,-2.1,-11,i,C[C@H]1CN([C@@H](C)CO)C(=O)c2cc(-c3cccc(C(=O)N(C)C)c3)cnc2O[C@@H]1CN(C)S(=O)(=O)c1ccc(F)cc1
0.9,2,0.5,1,i,COCCNC(=O)C1CCCN(Cc2ccc(-c3ccccc3)cc2)CC1 (stereo not given)
0.8,-5,-5.7,3,i,O=C(Nc1cccc(Cl)c1)c1csc(COCCO)n1
0.8,2,-6.6,0,i,C[C@@H]1CN([C@H](C)CO)C(=O)c2cc(NS(=O)(=O)c3ccccc3)ccc2O[C@@H](C)CCCCO[C@H]1CN(C)C(=O)Nc1ccc(C(F)(F)F)cc1
-2.1,5,-2.4,2,i,O=C(O)C[C@H]1C[C@H]2c3cc(NC(=O)Nc4ccc(F)cc4)ccc3O[C@H]2[C@H](CO)O1
2.3,24,-1.2,5,i,C[C@@H]1CN([C@H](C)CO)S(=O)(=O)c2ccc(-c3cccnc3)cc2O[C@@H]1CN(C)C(=O)CN(C)C
0.2,7,-2.9,8,i,CCCNC(=O)C1(C)CCN(C(=O)C(c2ccccc2)c2ccccc2)C1 (stereo not given)
1.3,2,-0.3,1,i,CN(C)c1ccc2c(c1)[C@H]1C[C@@H](CC(=O)NCc3ccccn3)O[C@@H](CO)[C@H]1O2
0.2,-2,-17,-1,i,CCCNC(=O)Nc1ccc2c(c1)OC[C@H](C)N(C(=O)c1ccccc1F)C[C@@H](C)[C@@H](OC)CN(C)C2=O
8.4,3,-3.2,1,i,CN(C)C(=O)c1cccc(-c2ccc([C@@H]3[C@@H](CO)N4CCCCN(S(C)(=O)=O)C[C@@H]34)cc2)c1
7.0,-2,11,-3,i,C[C@@H]1CN([C@H](C)CO)C(=O)c2cccc(NC(=O)Nc3ccc4c(c3)OCO4)c2O[C@@H]1CN(C)Cc1ccc(-c2ccccc2)cc1
-3.1,0,-0.4,-3,i,C/C=C/c1ccc2c(c1)O[C@@H](CN(C)C(=O)NC(C)C)[C@@H](C)CN([C@H](C)CO)S2(=O)=O
2.3,-25,-3.2,-7,i,CCCNC(=O)C1(C)CCCN(C(=O)c2ccc3ccccc3c2)C1 (stereo not given)
-3.3,5,-1.9,2,i,CNC[C@H]1Oc2c(NS(=O)(=O)c3ccc(Cl)cc3)cccc2C(=O)N([C@H](C)CO)C[C@@H]1C
-2.8,2,-0.1,3,i,C[C@H]1CN([C@@H](C)CO)C(=O)c2cc(C#Cc3ccccc3F)cnc2O[C@H]1CN(C)C(=O)Cc1ccncc1
0.2,-8,-1.6,0,i,Cc1noc(C)c1S(=O)(=O)N(C)C[C@@H]1OCCCC[C@@H](C)Oc2ccc(NC(=O)C3CCCCC3)cc2C(=O)N([C@H](C)CO)C[C@H]1C
5.5,-14,-1.0,-4,i,C[C@@H]1CN([C@H](C)CO)C(=O)c2cccc(NS(=O)(=O)c3ccc(Cl)cc3)c2O[C@H]1CN(C)S(=O)(=O)c1ccccc1
1.3,7,-3.8,1,i,COc1ccc(S(=O)(=O)N(C)C[C@H]2Oc3ccc(NS(C)(=O)=O)cc3CC(=O)N([C@H](C)CO)C[C@H]2C)cc1
0.5,1,3.5,0,i,C[C@@H]1CCCCO[C@@H](CN(C)C(=O)Nc2ccc(C(F)(F)F)cc2)[C@H](C)CN([C@H](C)CO)C(=O)c2cc(NC(=O)c3ccncc3)ccc2O1
2.5,12,-3.8,16,i,Cn1ncc2c(NCCO)nc(Cl)nc21
-0.2,9,0.2,12,i,O=C(CC[C@H]1O[C@@H](n2cnc3c(NC(=O)c4ccccc4)ncnc32)[C@H](O)[C@@H]1O)NCC1CCN(Cc2ccccc2)CC1
0.1,-4,-2.1,-1,i,CN1C(=O)c2cc(NC(=O)Cc3cccs3)ccc2OC[C@H]2O[C@H](CC(=O)NCC3CCCCC3)CC[C@@H]21
-2.4,10,-0.1,4,i,CC(C)NC(=O)N1C[C@@H]2[C@H](c3ccccc31)[C@@H](CO)N2C(=O)c1ccccc1
2.1,-1,-0.7,2,i,COc1ccc(OC)c(/C=C/C(=O)OCC(=O)N2CCN(S(=O)(=O)c3ccc(C)cc3C)CC2)c1
-1.1,-12,5.2,-6,i,CO[C@@H]1CN(C)C(=O)c2ccc(NC(=O)Nc3cc(F)ccc3F)cc2OC[C@H](C)N(C(=O)c2cnccn2)C[C@@H]1C
-2.1,7,-2.2,3,i,CN(C)C(=O)C[C@H]1CC[C@@H]2[C@H](COC[C@@H](O)CN2CC2CCCCC2)O1
8.3,-28,5.6,-9,i,COc1cc(C=C(OC(C)=O)c2ccc3c(c2)OCO3)cc(OC)c1OC
-2.3,-13,2.2,-1,i,C[C@H](CO)N1C[C@H](C)[C@H](CN(C)S(=O)(=O)c2ccc(Cl)cc2)Oc2ccc(NC(=O)NC3CCCCC3)cc2CC1=O
1.8,-3,0.3,-1,i,COc1ccc(C(=O)Nc2cc(S(=O)(=O)N3CCCCC3)ccc2C)cc1
1.6,-2,-0.3,12,i,CCN1C(=O)[C@H]2[C@H]3CN=C(SC)N3[C@@](Cc3ccccc3)(C(=O)OC)[C@H]2C1=O
-1.0,0,-2.4,0,i,CCCS(=O)(=O)NC(=O)C1(C)CCN(C(=O)c2c(F)cccc2F)C1 (stereo not given)
-0.7,6,-13,2,i,COc1ccc(S(=O)(=O)N(C)C[C@@H]2OCCCC[C@@H](C)Oc3ccc(NC(=O)Nc4cccc5ccccc45)cc3C(=O)N([C@H](C)CO)C[C@@H]2C)cc1
0.0,19,-1.2,7,i,CNC(=O)C[C@@H]1C(=O)N(C2CCCCC2)CC1(C)C

Some of the entries so far, with values under each structure:
Values run as follows: Ecoli rRNA inh RFP	Ecoli rRNA inh OD600	AF4-AF9 inh	Ecoli rRNA inh	FGF22 binding
COc1ccc(C(=O)Nc2cc(S(=O)(=O)N3CCCCC3)ccc2C)cc1
  1.8	-3	0.3	-1	i
CNC(=O)C[C@@H]1C(=O)N(C2CCCCC2)CC1(C)C
  0.0	19	-1.2	7	i

Other results follow:
Ecoli rRNA inh RFP,Ecoli rRNA inh OD600,AF4-AF9 inh,Ecoli rRNA inh,FGF22 binding,compound
-2.8,0,-3.5,-4,i,C[C@H](CO)N1C[C@H](C)[C@H](CN(C)S(=O)(=O)c2cn(C)cn2)OCc2ccccc2-c2c(n(C)c3ccccc23)C1=O
0.6,-1,-0.5,-9,+,C[C@H]1CN([C@@H](C)CO)S(=O)(=O)c2ccc(-c3cccc(F)c3)cc2O[C@H]1CN(C)C(=O)Nc1cc(F)ccc1F
-3.2,-6,-3.8,3,i,C[C@@H]1CN([C@H](C)CO)C(=O)c2cccc(NC(=O)C3CCOCC3)c2O[C@@H]1CN(C)Cc1ccccc1
-2.8,15,-3.5,2,i,CCS(=O)(=O)Nc1ccc2c(c1)C(=O)N(C)[C@@H]1CC[C@H](CC(=O)N3CCN(C)CC3)O[C@H]1CO2
-0.3,0,-13,-1,i,CO[C@H]1CN(C)C(=O)c2cc(NC(=O)Nc3ccccc3F)ccc2OC[C@H](C)NC[C@@H]1C
14,-60,9.6,-25,i,COc1ccc(C(c2nnnn2Cc2ccccc2)N2CCN(C/C=C/c3ccccc3)CC2)cc1 (stereo not given)
0.8,-8,0.0,-2,i,CCN(CC(=O)Nc1c(Cl)cccc1Cl)C(=O)C1CCN(c2ncnc3sc(C)c(C)c23)CC1
2.1,-20,-3.1,-5,i,C[C@H](CO)N1C[C@H](C)[C@@H](CN(C)S(=O)(=O)c2ccc(Cl)cc2)OCCCC[C@H](C)Oc2ccc(NS(=O)(=O)c3cn(C)cn3)cc2C1=O
-0.6,11,-3.5,1,i,CC(C)NC(=O)Nc1ccc2c(c1)C(=O)N([C@@H](C)CO)C[C@H](C)[C@H](CN(C)C(=O)Nc1ccc(F)cc1)O2
-0.5,1,-1.1,-1,i,COc1ccccc1CN1[C@@H](CO)[C@@H](c2ccccc2)C12CN(C(C)=O)C2
0.0,1,1.5,-2,i,COCC(=O)N1C[C@@H](C)[C@H](OC)CN(C)C(=O)c2ccc(NC(=O)c3cnccn3)cc2OC[C@@H]1C
0.3,-6,5.7&8.4,0,i,COc1ccc(S(=O)(=O)Nc2ccc3c(c2)CC(=O)N([C@@H](C)CO)C[C@@H](C)[C@H](CN(C)CC2CC2)O3)cc1
-1.4,4,-0.7,-1,i,CCNC(=O)[C@@H]1[C@@H](CO)[C@@H]2Cn3c(ccc(-c4ccccc4F)c3=O)[C@@H]2N1C
1.8,-5,0.9,-2,i,COc1ccc(S(=O)(=O)Nc2ccc3c(c2)CC(=O)N([C@H](C)CO)C[C@H](C)[C@H](CN(C)S(=O)(=O)c2cccs2)O3)cc1
-0.3,4,-7.0,3,i,COc1ccc(S(=O)(=O)Nc2ccc3c(c2)CC(=O)N([C@@H](C)CO)C[C@H](C)[C@H](CN(C)Cc2ccc(C(=O)O)cc2)O3)cc1
1.0,-2,4.4,1,i,C[C@H](CO)N1C[C@H](C)[C@@H](CN(C)CC2CCCCC2)Oc2ccc(NC(=O)Nc3ccc(F)cc3)cc2C1=O
7.0,-4,2.6,-8,i,O=C(NC1CCCCC1)N[C@H]1CC[C@H](CCNS(=O)(=O)c2ccc(Cl)cc2)O[C@H]1CO
-2.4,-5,-1.6,3,i,COCCNC(=O)C[C@@H]1C[C@H]2c3cc(NC(=O)Nc4ccccc4)ccc3O[C@H]2[C@@H](CO)O1
11,-1,8.1,-7,i,O=C(NC1CCCCC1)C(c1ccccc1)n1c(=O)c(-c2ccco2)nc2ccccc21 (stereo not given)
-3.8,-3,-4.5,4,i,C[C@H](CO)N1C[C@H](C)[C@@H](CN(C)Cc2ccccn2)Oc2ncc(C#CC(C)(C)O)cc2C1=O

Copied from the list:
For Ecoli rRNA inh OD600, `COc1ccc(S(=O)(=O)Nc2ccc3c(c2)CC(=O)N([C@@H](C)CO)C[C@H](C)[C@H](CN(C)Cc2ccc(C(=O)O)cc2)O3)cc1` reads 4
For Ecoli rRNA inh, `COCCNC(=O)C[C@@H]1C[C@H]2c3cc(NC(=O)Nc4ccccc4)ccc3O[C@H]2[C@@H](CO)O1` reads 3
For Ecoli rRNA inh OD600, `COc1ccc(S(=O)(=O)Nc2ccc3c(c2)CC(=O)N([C@@H](C)CO)C[C@@H](C)[C@H](CN(C)CC2CC2)O3)cc1` reads -6
For Ecoli rRNA inh RFP, `COCC(=O)N1C[C@@H](C)[C@H](OC)CN(C)C(=O)c2ccc(NC(=O)c3cnccn3)cc2OC[C@@H]1C` reads 0.0
For Ecoli rRNA inh OD600, `O=C(NC1CCCCC1)N[C@H]1CC[C@H](CCNS(=O)(=O)c2ccc(Cl)cc2)O[C@H]1CO` reads -4
For Ecoli rRNA inh, `O=C(NC1CCCCC1)C(c1ccccc1)n1c(=O)c(-c2ccco2)nc2ccccc21` (stereo not given) reads -7

New compounds follow.
Ecoli rRNA inh RFP,Ecoli rRNA inh OD600,AF4-AF9 inh,Ecoli rRNA inh,FGF22 binding,compound
1.3,-5,19,0,i,C[C@@H]1CN([C@H](C)CO)C(=O)c2cc(NC(=O)Cc3cn(C)c4ccccc34)ccc2O[C@H]1CN(C)CC1CCCCC1
0.0,5,2.7,1,+,C[C@@H]1CCCCO[C@H](CN(C)C(=O)c2ccncc2)[C@H](C)CN([C@H](C)CO)C(=O)c2cc(NS(=O)(=O)c3cn(C)cn3)ccc2O1
4.3,5,1.6,-4,i,C[C@H](NC(=O)C[C@H]1CC[C@@H]2[C@H](COC[C@H](O)CN2Cc2cc(F)ccc2F)O1)c1ccccc1
0.4,13,-2.4,2,i,C[C@H]1CN([C@@H](C)CO)C(=O)c2cc(NS(=O)(=O)c3cccs3)ccc2O[C@@H]1CN(C)C(=O)Nc1ccc(F)cc1
1.2,3,0.7,2,i,Cc1noc(C)c1S(=O)(=O)Nc1ccc2c(c1)C(=O)N([C@@H](C)CO)C[C@H](C)[C@H](CN(C)C(=O)Nc1ccc3c(c1)OCO3)O2
23,-34,4.0,-10,i,CC(C)C#Cc1ccc2c(c1)O[C@H](CN(C)Cc1ccccn1)[C@H](C)CN([C@H](C)CO)S2(=O)=O
-22,-83,2.2,-61,i,CC(C)(C)CC(=O)Nc1nc(C(N)Cc2ccc(C(F)(F)F)cc2)cs1 (stereo not given)

Screening data deposited in PubChem by Broad Institute.
